KCNQ2 enhance – enhances the rat KCNQ2 potassium channel; O88943; CHO-K1 KCNQ2, FluxOR thallium flux fluorescence; stronger effect = higher value; B-score at 10 µM; hit rate 0.54% among 310,000; AID 2239;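 active = fluorescence ratio B-score at least 3 SD of library B-scores, with initial fluorescence B-score within 3 SD, cut at about 5.3 in these data; same plate scores as AID 2156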;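 also: B-score of peak minus minimum over baseline fluorescence ratio after K+ and Tl+ stimulus; positive B-score means potentiation of KCNQ2 with more thallium influx and brighter signal; only the inactives scoring about 0 or higher are listed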
Target sequence (O88943 whole entry, looked up): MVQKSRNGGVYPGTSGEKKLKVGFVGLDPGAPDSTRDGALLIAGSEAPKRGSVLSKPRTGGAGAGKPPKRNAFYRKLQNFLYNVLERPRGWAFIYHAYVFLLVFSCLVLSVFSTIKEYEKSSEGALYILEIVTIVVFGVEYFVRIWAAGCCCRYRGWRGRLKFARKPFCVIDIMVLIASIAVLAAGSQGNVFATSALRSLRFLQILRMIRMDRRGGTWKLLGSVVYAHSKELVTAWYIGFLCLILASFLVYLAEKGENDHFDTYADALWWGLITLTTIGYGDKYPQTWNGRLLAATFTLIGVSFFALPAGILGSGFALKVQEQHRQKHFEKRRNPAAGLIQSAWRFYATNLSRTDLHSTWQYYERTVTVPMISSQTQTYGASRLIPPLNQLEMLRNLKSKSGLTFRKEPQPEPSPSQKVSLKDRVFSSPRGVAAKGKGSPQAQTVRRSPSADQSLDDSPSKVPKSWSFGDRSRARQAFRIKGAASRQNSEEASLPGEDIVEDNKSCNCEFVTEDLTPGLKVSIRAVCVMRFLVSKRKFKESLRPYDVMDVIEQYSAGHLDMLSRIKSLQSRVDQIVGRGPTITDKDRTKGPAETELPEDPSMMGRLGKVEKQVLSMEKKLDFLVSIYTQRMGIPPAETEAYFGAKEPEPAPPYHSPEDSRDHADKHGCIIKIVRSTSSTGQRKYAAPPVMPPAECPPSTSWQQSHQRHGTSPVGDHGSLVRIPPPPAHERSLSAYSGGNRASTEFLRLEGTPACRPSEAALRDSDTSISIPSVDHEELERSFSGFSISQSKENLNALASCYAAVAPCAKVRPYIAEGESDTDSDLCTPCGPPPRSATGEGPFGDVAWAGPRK
KCNQ2 enhance baseline – also measured in KCNQ2 enhance; calls as there; B-score; compound at 10 µM; measured here: initial fluorescence intensity artifact check;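 brightness before thallium and not channel activity; 0 = typical well and far values either way flag optical interference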
Starred values were filed as active, the others as inactive. These rows are one share of the data; rates above refer to the full screens.

SMILES | KCNQ2 enhance | KCNQ2 enhance baseline
COc1ccccc1N1CCN(C(=O)CN(C2CCCCC2)S(C)(=O)=O)CC1 | 2.32 | -0.3
O=C(Nc1ccccc1)/C(=C\c1ccco1)NC(=O)c1ccco1 | 0.08 | 0.41
COc1ccc([C@@H](C)NC(=O)CCc2nnc(-c3cc(C)on3)o2)cc1 | 0.61 | 1.08
O=C(Nc1cccc(NC(=O)c2cccc(F)c2)c1)c1ccccc1 | 1.35 | 3.61
Cc1ccc(-c2nnc(-c3ccccc3S(=O)(=O)Cc3ccc(Cl)cc3)o2)cc1 | 0.35 | 0.85
CCOC(=O)C(Cc1ccccc1)C(=O)c1ccco1 (centres undefined) | 0.55 | -0.84
Cc1occc1C(=O)Nc1cccc([N+](=O)[O-])c1C | 1.92 | 0.55
CC(=O)N(Cc1cccnc1)Cc1cc2ccccc2[nH]c1=O | 1.35 | -1.22
CCc1ccc2nc(SCC(=O)NCC3CCCO3)c(C#N)cc2c1 (centres undefined) | 0.4 | 0.02
CCC/C(=N\NC(=O)c1ccc(OC)c(OC)c1)c1ccccc1 | 2.09 | -1.06
CCn1c(-c2ccc3ncccc3c2)n[nH]c1=S | 0.18 | -0.39
O=C(c1noc2c1CCc1ccccc1-2)N1CCOCC1 | 0.12 | -0.92
Cc1ccccc1SCC(=O)Nc1cc(S(=O)(=O)N2CCOCC2)ccc1N1CCOCC1 | 0.64 | 1.03
COc1ccc(C(F)(F)F)cc1N/C=C\c1nnnn1-c1ccc(C)cc1 | 1.48 | -0.13
O=S(=O)(NC1CCCC1)c1cc(F)ccc1F | 1.7 | 1.22
O=C(CC1NCCNC1=O)NC1Cc2ccccc2C1 (centres undefined) | 0.06 | -1.13
CC1CC(C)CN(C(=O)c2ccc(S(=O)(=O)N3CC(C)CC(C)C3)cc2)C1 (centres undefined) | 0.01 | -0.03
Cn1c(Cl)nc2c1c(=O)n(Cc1cccc(Br)c1)c(=O)n2C | 1.41 | 0.67
CCCN1CCC(NC(=O)Nc2ccc(OC)c(OC)c2)CC1 | 0.62 | -0.02
Cc1ccc(S(=O)(=O)c2c[nH]c3cc4c(cc3c2=O)OCO4)cc1 | 0.47 | -1.04
CC(O)CCc1ccc(O)cc1 (centres undefined) | 0.02 | -0.34
COCCN(C(=O)Nc1ccc(OC)cc1OC)C1CCN(C(C)=O)CC1 | 1.18 | -0.31
O=C(O)CCC(=O)N1CCC[C@H]1C(=O)O | 1.12 | -0.14
Cc1ccc(C)c(C(=O)CCC(=O)O)c1 | 0.55 | -0.1
CCCCN1C(=O)NC(NC(=O)c2ccco2)(C(F)(F)F)C1=O (centres undefined) | 0.97 | 0.01

Sorted by formula weight (descending): 6 of the compounds above
SMILES | KCNQ2 enhance | KCNQ2 enhance baseline
Cc1ccccc1SCC(=O)Nc1cc(S(=O)(=O)N2CCOCC2)ccc1N1CCOCC1 | 0.64 | 1.03
Cn1c(Cl)nc2c1c(=O)n(Cc1cccc(Br)c1)c(=O)n2C | 1.41 | 0.67
COc1ccc(C(F)(F)F)cc1N/C=C\c1nnnn1-c1ccc(C)cc1 | 1.48 | -0.13
O=C(Nc1cccc(NC(=O)c2cccc(F)c2)c1)c1ccccc1 | 1.35 | 3.61
O=C(Nc1ccccc1)/C(=C\c1ccco1)NC(=O)c1ccco1 | 0.08 | 0.41
CC(=O)N(Cc1cccnc1)Cc1cc2ccccc2[nH]c1=O | 1.35 | -1.22

Continuation.
SMILES | KCNQ2 enhance | KCNQ2 enhance baseline
Cc1ccc(S(=O)(=O)N2CCN(c3ncccn3)CC2)cc1C | 0.46 | 1.76
CC(=O)C1C(c2ccccc2)c2c(n[nH]c2C)CC1(C)O (centres undefined) | 0.56 | -1.08
Cc1cccc(/C=N/NC(=O)c2ccc(F)cc2)n1 | 1.73 | 0.01
COc1ccc(NC(=O)CSc2ccccc2)c(OC)c1 | 1.14 | 1.92
Cc1noc(C)c1S(=O)(=O)N1CCC(C(=O)Nc2ccccn2)CC1 | 1.51 | -0.91
CCC(C)c1ccc(NC(=S)NCc2ccccc2OC)cc1 (centres undefined) | 0.01 | -1.01
Cc1cccc(NC(=O)CCS(=O)(=O)c2cc3c(cc2Cl)NC(=O)CO3)c1 | 0.82 | 0.02
CC(OC(=O)C1CCN(S(=O)(=O)c2ccc(F)cc2)CC1)C(=O)NC1CCCCC1C (centres undefined) | 2.26 | -0.84
NC(=O)c1ccc(Oc2ccc(-c3nnco3)cc2)c([N+](=O)[O-])c1 | 2.24 | 0.76
Cc1ccc(CSCC(=O)N(C)CC(=O)Nc2c(Cl)cccc2Cl)cc1 | 0.01 | -0.68
COC(=O)c1scc(C)c1NC(=O)Nc1ccccc1 | 1.12 | 0.95
O=C(Nc1cccnc1)c1ccc(F)c(S(=O)(=O)N2CCOCC2)c1 | 0.64 | 2.47
COC(=O)c1ccc(S(=O)(=O)N2C3CCC2CC(NC(=O)C2CC2)C3)cc1 (centres undefined) | 0.88 | 0.16
CCc1cccc(C)c1N(C(=O)Cn1c(CO)nc2ccccc21)C(C)COC (centres undefined) | 1.45 | -0.05
COc1ccccc1NC(=O)C(=O)NNC(=O)COc1ccc2ccccc2c1 | 23.2* | 1.71*
O=C(O)C1CC=CCC1C(=O)N1CCN(c2nc(-c3ccccc3)c3ccccc3n2)CC1 (centres undefined) | 0.01 | -1.22
O=C1[C@@H]2CSCN2C(=O)CN1Cc1ccccc1F | 0.19 | -0.24
COc1ccc(C)cc1-n1c(N)c(C#N)c(C#N)c1-c1ccc(OC)c(OC)c1OC | 0.29 | -0.11
O=[N+]([O-])c1ccc(C=Nc2ccc(Cl)cc2Cl)s1 | 0.37 | -0.4
CCc1c(C)nc2c(-c3ccccc3)c(-c3ccccc3)[nH]n2c1=O | 1.34 | 0.74
Cc1ccc(O)c(NC(=O)c2cc(-c3ccccc3)on2)c1 | 0.35 | -0.27
CCSc1nn2c(=O)c3ccccc3nc2s1 | 0.1 | 0.01
COC(=O)Cn1c(=O)oc2ccc(C)cc21 | 1.45 | 2.74
CCC(=O)N1CCc2cc(S(=O)(=O)N3CCN(c4ccccc4Cl)CC3)ccc21 | 0.1 | 3.2
O=C(COC(=O)/C=C/c1ccccc1)NCCNC(=O)COC(=O)/C=C/c1ccccc1 | 0.47 | 0.01
Other results follow:
SMILES | KCNQ2 enhance | KCNQ2 enhance baseline
O=S1(=O)N=C2CCCCCN2C(c2ccccc2)N1 (centres undefined) | 0.88 | -0.9
COC(=O)c1c(NC(=O)CCS(=O)(=O)c2ccccc2)sc2c1CCN(C)C2 | 0.1 | 0
O=C(C1CCC1)N1CCc2cc(S(=O)(=O)NCC3COc4ccccc4O3)ccc21 (centres undefined) | 0.12 | 1.68
NS(=O)(=O)c1ccc(NC=C2C(=O)OC3(CCCCC3)OC2=O)cc1 | 0.2 | 0.01
Cc1ccc(NC2c3ncccc3C(=O)N2Cc2ccco2)c(C)c1 (centres undefined) | 0.24 | -0.04
Cc1ccc(Sc2c(C)[nH]n(C(C)(C)C)c2=O)cc1 | 1.18 | -0.63
O=C(NC(O)C(=O)c1ccccc1)c1cccs1 (centres undefined) | 0.11 | 0.05
CCOC(=O)C1CCN(C(=O)c2ccccc2NC(=O)c2ccc(Br)cc2)CC1 | 0.02 | -0.56
COc1cccc(NC(=O)CCN2C(=O)c3ccccc3Sc3ncccc32)c1 | 0.6 | 0.53
CCCCC(=O)NNC(=O)N1c2ccccc2Sc2ccccc21 | 1.42 | 0.14
O=C(COC(=O)CCSc1ccccc1)NCc1ccccc1 | 2.15 | -0.97
COc1ccc(Br)cc1/C=N/NC(=O)c1ccc(OC)c(OC)c1 | 0.28 | 0.89
COc1cccc(NC(=O)CCN2CCN(C)CC2)c1 | 1.54 | -2.15
COC(=O)c1cc2n(n1)CCN(Cc1ccccc1F)C2=O | 0.75 | 0
CC(C)=C1SC(N2CCN(c3ccc(C)c(Cl)c3)CC2)=NC1=O | 0.4 | 0.68
CC(=O)C1=C(C)NC(SCC(=O)c2ccc(F)cc2)=C(C#N)C1CC(C)C (centres undefined) | 2.77 | 0.73
COc1ccc(OC)c(C(=O)/C=C/c2cccnc2)c1 | 0.34 | 0.05
COc1cccc(NC(=O)c2ccc3c(c2)OCO3)c1 | 0.31 | 0.81
N#CC1=C(N)SC(N)=C(C#N)C1c1ccnc2ccccc12 | 0.29 | 1.82
CCc1cc2c(=O)c(-c3ccc4c(c3)OCCO4)c(C)oc2cc1OS(C)(=O)=O | 0.52 | -1.25
CC(C)(C)CN1C(N)=NC[C@@H]1c1ccccc1 | 0.76 | 0.24
Cc1cc(OCC(=O)Nn2cnnc2)ccc1Br | 0.15 | 0.52
O=C(NCc1cccc(Cl)c1)c1ccncc1 | 0.43 | 1
Cn1c(=O)n(Cc2ccco2)c(=N)c2c3c(sc21)CCCC3 | 1.29 | -2.46
Cn1cccc1/C=N/NC(=O)C(O)c1ccccc1 (centres undefined) | 0.21 | -0.32
Other compounds
SMILES | KCNQ2 enhance | KCNQ2 enhance baseline
COc1ccc(NC(=O)Cn2nnc(C(=O)NCc3cccs3)c2N)cc1OC | 1.57 | -0.36
CN(Cc1ccccc1)C(=C(Cl)Cl)C(=C1NCCN1)[N+](=O)[O-] | 0.18 | 0.74
O=S(=O)(c1ccc2ccccc2c1)N1CCN(S(=O)(=O)N2CCOCC2)CC1 | 0.03 | -0.98
Cc1ccc(C)c(OCc2n[nH]c(=S)o2)c1 | 0.09 | -0.96
O=C(NCc1ccc2c(c1)OCO2)c1ccc2c(c1)OCCO2 | 1.16 | 0.01
O=C(CSc1nc2ncc(Cl)cc2[nH]1)c1c[nH]c2ccccc12 | 0.03 | -1.26
CCCc1c(C(=O)Nc2cc(C(C)(C)C)on2)cnn1-c1ccccc1 | 0.01 | -0.09
CCOc1ccc(OCc2ccc(C(=O)N3CCOCC3)cc2)cc1 | 0.3 | 0
CCOc1ccc(C(=O)N(Cc2ccc(N(C)C)cc2)C2CCS(=O)(=O)C2)cc1 (centres undefined) | 0.94 | -0.43
O=S(=O)(c1ccccc1)c1cnc(-c2cccnc2)nc1-c1ccccc1 | 0.06 | 0.2
CCc1cc(=O)oc2c(C)c(OCC(=O)N3CCC(C(=O)O)CC3)ccc12 | 0.03 | -0.02
CCCCC1=CC2=CC(=O)C(C)(OC(=O)CC)C(=O)C2=CN1CCc1ccccn1 (centres undefined) | 0.11 | -0.8
Nc1ccc(NC(=O)NC2CCCCC2)cc1[N+](=O)[O-] | 0.86 | -0.7
O=C(CCNC(=O)c1ccc(Br)cc1)Nc1ncccc1O | 0.22 | 0.15
O=C(Nc1nnc(Cc2ccc(Cl)cc2)s1)c1ccncc1 | 0.95 | 0.97
CC1=C(C(=O)OCc2ccccc2)C(c2ccccc2)NC(=O)N1CCCC(=O)O (centres undefined) | 0.07 | 2.43
O=C(Nc1ccc(Br)cc1)c1ccc2c(c1)OCO2 | 2.06 | -0.4
O=C(CSc1ccc(-c2ccco2)nn1)c1ccccc1 | 1.88 | -0.02
O=C(Nc1ccc(Br)cc1F)c1cccnc1 | 0.46 | 0.67
CN(Cc1nc(-c2cccnc2)no1)S(=O)(=O)c1ccc2ccccc2c1 | 0.36 | 0.25
CCOc1ccc(NC(=O)CN2C(=O)NC(CCSC)C2=O)cc1 (centres undefined) | 0.15 | -1.15
CC1=C(c2ccccc2)[N+](=O)C2(CCCC2)N1[O-] | 1.32 | -1.16
O=C(NCc1ccc(F)cc1)c1cc2ccccn2n1 | 0.2 | -0.88
CCCCCOc1ccc(C(=O)OCC(=O)Nc2cc(C)c(C)cc2[N+](=O)[O-])cc1 | 0.56 | 0.01
CCc1noc(C)c1C(=O)Nc1nc2ccc(OC)cc2s1 | 1.96 | 0.18

Some of the entries above in another layout:
compound,KCNQ2 enhance,KCNQ2 enhance baseline
O=C(Nc1nnc(Cc2ccc(Cl)cc2)s1)c1ccncc1,0.95,0.97
CC1=C(C(=O)OCc2ccccc2)C(c2ccccc2)NC(=O)N1CCCC(=O)O (centres undefined),0.07,2.43
O=C(Nc1ccc(Br)cc1)c1ccc2c(c1)OCO2,2.06,-0.4
O=C(CSc1ccc(-c2ccco2)nn1)c1ccccc1,1.88,-0.02
O=C(Nc1ccc(Br)cc1F)c1cccnc1,0.46,0.67

(cont.)
SMILES | KCNQ2 enhance | KCNQ2 enhance baseline
O=C(CC1OC(=O)c2ccccc21)Nc1cc(S(=O)(=O)N2CCOCC2)ccc1OCC(F)(F)F (centres undefined) | 1.79 | -1.29
COc1ccc(NC(=O)c2cnn(-c3ccccc3)c2C)cc1 | 0.1 | -2
CC1(OC(=O)C2CCCC2)C(=O)C=C2C=C(c3ccsc3)N(CCc3c[nH]c4ccccc34)C=C2C1=O (centres undefined) | 0.42 | 0.5
CO/N=C\CC(=O)Nc1ccc(F)cc1 | 0.4 | 0.36
O=P(O)(O)CP(=O)(O)O | 0.63 | 1.59
COc1ccccc1OCCNC(=O)c1ccc2c(c1)CCC2 | 0.36 | 1.94
[O-][n+]1onc2c3ccnnc3ccc21 | 1.91 | -0.74
CCCc1cc(=O)oc2cc(C)cc(OCC(=O)Nc3ccc(CN4CCOCC4)cc3)c12 | 1.43 | 0
COCc1c(C)cc(C)c(/C=N/O)c1C | 0.22 | -0.42
S=c1[nH]c2ccccc2n2c(=S)[nH]nc12 | 0.02 | 0.98
CCC(CC)c1nnc(NC(=O)CN2C(=O)C3C4C=CC(C4)C3C2=O)s1 (centres undefined) | 0.69 | -0.44
Cc1c(S(=O)(=O)N2CCCC2)c(=O)n(C)c(=O)n1C | 0.75 | -1.03
Cc1cccc(C)c1NC(=O)N1CCC(C(=O)c2ccc(F)cc2)CC1 | 1.61 | 0.03
NNC(=O)CNC(=O)c1cccc(Br)c1 | 1.12 | -0.87
COCCCn1c(-c2ccco2)nc2ccccc2c1=O | 2.63 | -1.09
CC(C)Cc1nnc(NC(=O)CCC(=O)N2CCN(C3CCCC3)CC2)s1 | 1.58 | 1.76
CCOC(=O)N1CCN(S(=O)(=O)c2ccc(C)c(C)c2)CC1 | 0.37 | -1.33
COc1ccc(N2CCN(C(=O)CNC(=O)c3cccc(Br)c3)CC2)cc1 | 1.43 | -1.19
